NPR1 antag: antagonists of human natriuretic peptide receptor Npr1 | P16066 | HEK293 hNpr1 GloSensor cGMP, ANP-stimulated luminescence | Potency, µM (titrated, usually from 46.3 µM), inactives show at the top dose activity change, negative = inhibition, usual class: inhibitors | hit rate 1.6% among 76,000 | AID 1347048; active = well fitted inhibition curve with a large enough effect; inconclusive = small, poorly fitted or top-dose-only effect; inactive = no such curve, though single readings can be large or run the other way;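 note: nearly all actives have a fitted effect of over 60% in size; nearly all hits also lower the signal before the agonist is added; a reference antagonist and vehicle were the controls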
Target sequence (P16066 whole entry, looked up): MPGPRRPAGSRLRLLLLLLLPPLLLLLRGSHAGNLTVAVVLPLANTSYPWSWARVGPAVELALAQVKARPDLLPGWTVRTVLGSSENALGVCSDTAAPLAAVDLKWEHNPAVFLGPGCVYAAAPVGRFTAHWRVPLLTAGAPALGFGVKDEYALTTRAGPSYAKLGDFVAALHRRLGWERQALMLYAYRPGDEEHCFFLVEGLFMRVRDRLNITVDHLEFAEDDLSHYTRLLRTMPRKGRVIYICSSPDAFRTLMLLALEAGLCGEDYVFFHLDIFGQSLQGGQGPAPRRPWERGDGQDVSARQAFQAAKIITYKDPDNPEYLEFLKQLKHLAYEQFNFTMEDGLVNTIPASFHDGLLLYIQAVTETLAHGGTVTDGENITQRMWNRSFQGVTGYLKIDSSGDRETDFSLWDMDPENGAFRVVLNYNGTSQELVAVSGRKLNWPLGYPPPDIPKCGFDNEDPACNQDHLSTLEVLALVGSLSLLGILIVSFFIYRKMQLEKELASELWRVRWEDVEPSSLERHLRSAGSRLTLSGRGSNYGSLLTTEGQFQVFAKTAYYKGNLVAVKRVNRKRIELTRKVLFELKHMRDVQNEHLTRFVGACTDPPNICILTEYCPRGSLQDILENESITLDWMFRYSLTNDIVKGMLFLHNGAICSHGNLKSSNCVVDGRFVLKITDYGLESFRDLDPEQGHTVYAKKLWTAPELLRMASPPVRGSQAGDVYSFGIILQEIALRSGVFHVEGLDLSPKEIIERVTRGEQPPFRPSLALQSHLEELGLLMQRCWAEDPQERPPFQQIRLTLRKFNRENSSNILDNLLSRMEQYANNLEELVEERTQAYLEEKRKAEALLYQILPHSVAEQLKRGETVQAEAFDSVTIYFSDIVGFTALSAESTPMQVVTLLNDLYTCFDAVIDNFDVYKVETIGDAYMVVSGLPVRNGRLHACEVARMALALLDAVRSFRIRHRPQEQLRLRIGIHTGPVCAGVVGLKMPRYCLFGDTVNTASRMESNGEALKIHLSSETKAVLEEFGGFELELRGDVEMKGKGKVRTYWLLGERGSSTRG
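HEK293 cells stably expressing human Npr1 and cGMP GloSensor pGS-40F, loaded 2 h with 2% GloSensor reagent, given compound 30 min at room temperature. Luminescence read before and 20 min after 0.1 nM hNppA.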
Numbers without * were called inactive; ? = inconclusive; & = joins results of further samples; [ ] = dose if it differs, or a comment. % is set by controls: 0 for no effect and ±100 for the full control effect; potency is the fitted concentration of half-maximal effect. A portion of the library (hit frequency here may not be typical).

NPR1 antag	SMILES
-1.8%	COc1ccccc1-c1noc(CCC(=O)N2CCC(Cc3noc(C)n3)CC2)n1
-14.6%[70.6 µM]	CC[C@H]1CN(S(=O)(=O)c2ccc(OC)cc2)CC[C@H]1CC(=O)Nc1nccs1
3.8%[70.6 µM]	Cc1cc2cc(-c3c(C)noc3C)nc(Nc3ccccn3)c2o1
?	Cc1nc(C)c(C(=O)N2CC(Oc3ccc(-c4noc(-c5ccccc5)n4)cc3)C2)s1
-20.0%	COc1ccc(-c2cc(N3CCN(C(=O)c4cccc(F)c4)CC3)n[nH]2)cc1
-4.5%	Cc1nonc1CC(=O)NC1CC(c2cc(=O)[nH]c(C3CC3)n2)C1 (configuration not stated)
1.1%	O=C(NCc1ccc(F)cc1)c1nc(-c2ccc(Cl)cc2)c2ccccn12
6.1%	O=C(NC1CCc2nn(CC3CC3)c(=O)n2CC1)c1ccc(Cn2cncn2)o1 (configuration not stated)
4.4%	COc1cc(OC)cc(C(=O)N2CCC(n3cc(-c4nc(C)no4)nn3)CC2)c1
1.1%	CCC(C)NC(=O)C1COC2(CCN(C(=O)C3CCC3)CC2)N1C(=O)c1ccc(OC)cc1 (configuration not stated)
5.2%[70.6 µM]	CC1CCCN1c1ncnc2c1CN(c1cccnc1)C(=O)CN2C (configuration not stated)
3.55µM*	CCc1ccc(C(=O)N2CCC(Cc3nc(-c4ccc(OC)cc4)no3)CC2)cc1
-1.9%	COc1ccc(C(=O)N2CCCN(S(=O)(=O)c3ccccc3)CCC(=O)NCC2)cc1F
2.7%	COc1ccc(C(=O)N2C[C@@H](Oc3ccccc3)C[C@H]2C(=O)N2CCOCC2)cc1F
-16.8%	Cc1cccc(NC(=O)N2CCCCCC2CN2CCc3ccccc3C2)c1 (configuration not stated)
-5.7%	COc1ccc(CN2C(=O)COC[C@H]2C(=O)Nc2ccc3c(c2)OCCO3)c(OC)c1
-1.7%	Cc1cc(C(=O)N2CCC(c3noc(C4CC4)n3)C2)nn1C (configuration not stated)
?	O=C(Nc1ccc(Cl)cc1)C1CCN(C(=O)c2ncn3c2COC(c2ccccc2)C3)CC1 (configuration not stated)
-0.7%[70.6 µM]	Cc1nnsc1C(=O)N[C@H]1CCN2C(=O)N(c3ccc(C(C)C)cc3)C(=O)[C@@H]2C1
-0.4%	O=C(NCc1ccccc1)N[C@H]1CO[C@H]2[C@@H]1OC[C@@H]2n1nnnc1Oc1ccc(-n2ccnc2)cc1
-11.1%	Cc1cccc(OCC(=O)N2CC(C(=O)NCc3ccncc3)C3(CCOCC3)C2)c1 (configuration not stated)
-3.2%[70.6 µM]	COC1CCCN(c2cc(-c3cccnc3)nc3c(C)noc23)C1 (configuration not stated)
2.7%[70.6 µM]	COCCNC(=O)[C@@H]1CCC[C@@H](NC(=O)C(C)(C)C)CN(C)C(=O)C1
-16.3%	COc1ccc2c(C)c(C(=O)N3CCCCC3c3cc(C)on3)oc2c1 (configuration not stated)
4.1%	Cc1nnc(NC2CC(c3cc(=O)[nH]c(C4CC4)n3)C2)c2ccccc12 (configuration not stated)
-23.7%	CCCc1noc(-c2cn(C3CCN(C(=O)c4ccc(F)c(F)c4)CC3)nn2)n1
5.4%	O=C(NCc1ccccc1Cl)C1CCN(C(=O)c2ncn3c2COC(c2ccc(F)cc2)C3)CC1 (configuration not stated)
9.7%	c1nc2c([nH]1)CN(Cc1ccc(OCCCN3CCOCC3)cc1)CC2
-0.5%	OC1(CNCc2csc3ccc(Cl)cc23)CNCCOC1 (configuration not stated)
-3.2%[70.6 µM]	O=C(Nc1ccc([C@@H](O)[C@H]2COCC(=O)N2Cc2ccccn2)cc1)C1CC1

A portion of the results above, as a working copy:
NPR1 antag	SMILES
5.4%	O=C(NCc1ccccc1Cl)C1CCN(C(=O)c2ncn3c2COC(c2ccc(F)cc2)C3)CC1 (configuration not stated)
9.7%	c1nc2c([nH]1)CN(Cc1ccc(OCCCN3CCOCC3)cc1)CC2
-0.5%	OC1(CNCc2csc3ccc(Cl)cc23)CNCCOC1 (configuration not stated)
-3.2%[70.6 µM]	O=C(Nc1ccc([C@@H](O)[C@H]2COCC(=O)N2Cc2ccccn2)cc1)C1CC1

Next section:
NPR1 antag	SMILES
-17.7%[70.6 µM]	O=C1COc2ccc(-c3cccc(O)c3)nc2CN1Cc1ccc(C(F)(F)F)cc1
-0.3%	CS(=O)(=O)N1CCC(c2nccn2Cc2ccncc2)CC1
2.6%	Cn1c(=O)n([C@H]2CCCN(C(=O)C3CC3)C2)c2ncccc21
4.5%	CCCCNC(=O)CCN(CCCOC)C(=O)c1ccoc1
0.5%	O=C(Cc1ccsc1)NC1CCCN(c2cc(-c3ccc(F)cc3)[nH]n2)C1 (configuration not stated)
?	CC(C)c1noc(CC2CCN(C(=O)Cc3ccsc3)CC2)n1
0.8%	CN(CCCN1CCOCC1)Cc1nc(-c2cccs2)no1
-12.9%	CCN(CC)Cc1nnc2cc(-c3nc(-c4ccccc4)no3)ccn12
1.1%[70.6 µM]	CCN(CC)Cc1nc(C2(O)CCN(C(=O)CCc3ccccc3)CC2)cs1
3.9%	CN1CC(=O)N(c2ccccc2F)Cc2c(NCc3ccc4c(c3)OCO4)ncnc21
1.2%	CC(=O)N1C[C@@H]2CCCN3CCC[C@@H]([C@H]23)[C@H]1CCCC(=O)Nc1ccccc1
-1.9%	CC(=O)N1CCCC1c1nc(C2CN(S(=O)(=O)c3cccnc3)C2)no1 (configuration not stated)
-11.6%	O=C(NCCc1ccccc1)C1c2ccccc2C(=O)N(Cc2ccccc2)C12CCCC2 (configuration not stated)
-1.7%[70.6 µM]	CN(C)c1ncc2c(n1)C(C)(C(=O)NCc1cccc(F)c1)CCC2 (configuration not stated)
4.8%	COc1ccc(NC(=O)CC2CCCCN(C)C2=O)cc1C(F)(F)F (configuration not stated)

Rewritten as labelled records: entries from further up.
mol: CN(CCCN1CCOCC1)Cc1nc(-c2cccs2)no1
  NPR1 antag: 0.8%
mol: CC(C)c1noc(CC2CCN(C(=O)Cc3ccsc3)CC2)n1
  NPR1 antag: ?
mol: COc1ccc(NC(=O)CC2CCCCN(C)C2=O)cc1C(F)(F)F (configuration not stated)
  NPR1 antag: 4.8%
mol: CN(C)c1ncc2c(n1)C(C)(C(=O)NCc1cccc(F)c1)CCC2 (configuration not stated)
  NPR1 antag: -1.7%[70.6 µM]

Next results follow.
NPR1 antag	SMILES
0.9%	COCCN(C)C[C@@H]1CN(C(=O)c2ccc3c(c2)CCC3)C[C@@H]1CO
-24.3%[70.6 µM]	CC(C)N1C(=O)CO[C@H]2CCN(Cc3ccncc3Cl)CC[C@@H]21
-0.9%[70.6 µM]	COCCC(=O)N1CCNc2cnc(Nc3cccc(C(F)(F)F)c3)nc2C1
-14.8%	CCn1nccc1C(=O)NC1CCN(c2cc(-c3ccccc3)[nH]n2)CC1
0.0%	Cc1cccc(NC(=O)CN2C(=O)NC3(CCCCC3)C2=O)c1
-17.5%[70.6 µM]	O=C(NCC1CN(Cc2cccc(O)c2)CC12CN(c1ccccc1)C2)c1ccccc1 (configuration not stated)
-2.3%	O=S(=O)(c1cc(F)ccc1F)N1CCCC1c1nncn1Cc1ccncc1 (configuration not stated)
3.5%	CN(C)c1nc(-c2ccncc2)nc2c1CCN(C(=O)c1cc(=O)[nH]c(=O)[nH]1)C2
-12.7%	COCCN1CCC2(CCC1=O)CCN(C(=O)Nc1ccc(C(=O)OC)cc1)CC2
-0.9%	N[C@@H](Cc1cnc[nH]1)C(=O)NCc1cccnc1Oc1ccc(F)cc1F
?	O=C(NCCC1=CCCCC1)c1cc2n(n1)CC(c1ccc(Cl)cc1)OC2 (configuration not stated)
-1.3%	O=C(NCc1nc2ccccc2[nH]1)C1CC(=O)N(c2n[nH]c3ccccc23)C1 (configuration not stated)
8.0%	COc1ccc(OC2CCN(C(C)=O)CC2)c(C(=O)NCc2csc(C(C)C)n2)c1
-9.4%	O=C1N2CCCC2CN1C1CCN([S+](=O)([O-])c2cccc(C(F)(F)F)c2)CC1 (configuration not stated)
1.8%[70.6 µM]	COc1ccc(-c2cn(C)c(=O)n3cc(COc4ccnn4C)nc23)cc1OC
5.7%	COc1ccc(CCN2C(=O)O[C@@H]3CN(S(=O)(=O)N4CCCCC4)C[C@@H]32)cc1
1.6%	C[C@H](C(=O)NCCN1CCOCC1)C1CC[C@@]2(C)Cc3sc(NC(=O)CC(C)(C)C)nc3[C@@H](C)[C@@H]2[C@H]1O (some centres not stated)
-1.1%	COc1ccc(CCc2nc3nccc(-c4ccc(F)cc4OC)n3n2)cc1
1.8%	CC(C)c1ccc(CN2C[C@H]3[C@H](C2)[S+](=O)([O-])C(C)(C)C(=O)N3Cc2ccccc2)cc1
0.6%	COCCOC1CN(C2CCN(C(=O)c3ccc(C#N)cc3)CC2)C12CCCCC2 (configuration not stated)
0.1%	CCNC(=O)N1CCCC(Cn2c(C3CC3)nc3cccnc32)C1 (configuration not stated)
-1.3%	CN(CC1CCN(CCc2cccc(F)c2)CC1)C(=O)[C@@H](N)Cc1cnc[nH]1
11.6%	O=C1CCCCC(CNC(=O)c2ccc(F)cc2)N1 (configuration not stated)
-27.7%	O=C(NC1CCN(Cc2ccccc2)CC1)c1cccc2c1CCN2C(=O)c1ccccc1
4.9%	COc1ccccc1C(=O)N1CCCc2nc(C)nc(-c3ccc(O)cc3)c2C1
2.2%	COc1ccc(S(=O)(=O)N2CCN(C(=O)c3csc(C)n3)CC2)cc1
1.0%	C[S+](=O)([O-])c1cccc(-c2ncc3c(n2)OCCN(Cc2ccc(F)cc2F)C3=O)c1
0.3%	CC(C)CC(=O)N1CC(c2nnc(C(C)C)o2)C2(CCOCC2)C1 (configuration not stated)
-0.9%	O=C(c1ccc(F)c(Cl)c1)N1CCC2(CC1)CN(c1ccccc1)C2=O
12.2%	O=C(CC1=CCCCC1)N1CCC(C2CCNC2)CC1 (configuration not stated)
-12.0%	COc1ccc(-c2cc3c(=O)n(CCNC(=O)c4ccc(C)s4)ccn3n2)cc1
7.7%[70.6 µM]	COCCCn1c(=O)[nH]c2cccnc21
?	O=C(C1CC1)N1CCC(n2cc(-c3nc(-c4ccccc4)no3)nn2)CC1
-17.6%	CCC(C(=O)NC1CCN(c2cnn(CC)c(=O)c2)CC1)c1ccccc1 (configuration not stated)
-10.9%	CCc1ccccc1OCC(=O)c1ccc2c(c1)N(CCCC(=O)NCCOC)C(=O)CO2
6.3%[70.6 µM]	O=C1CO[C@H]2CN(C3CCOCC3)C[C@H]2N1c1ccccc1
-30.4%[70.6 µM]	CC(=O)Nc1cccc(-c2nc(-c3c(C)noc3C)cc3c2cc(-c2ccccc2)n3C)c1
2.3%[70.6 µM]	CC(C)C(=O)N1CCC2(CC1)OC(=O)N(Cc1ccccc1)C2(C)c1cccnc1 (configuration not stated)
9.1%[70.6 µM]	COCC(=O)N1CC[C@@H]2[C@H]1C(=O)N(c1ccc(OC)cc1)C(=O)N2Cc1ccccc1
-1.0%[70.6 µM]	CC(C)NC(=O)C1(C)CN(Cc2ccccc2)Cc2ccc(N3CCOCC3)nc21 (configuration not stated)
3.2%	CC(=O)N1CCC2(CC1)CC(CC(=O)O)CCO2 (configuration not stated)
6.7%[70.6 µM]	FC(F)(F)c1ccc2nc([C@H]3CCN(Cc4ncc[nH]4)C3)[nH]c2c1
-2.4%	CN1CCC([C@@H]2CN(C(=O)c3ccc4[nH]ccc4c3)C[C@H]2C(N)=O)CC1
-18.0%	O=C1NC2(CCN(Cc3ccc(C(F)(F)F)cc3)CC2)COc2ccccc21
-2.1%	COCc1nc(-c2ccc(NC(=O)Cn3nc4c(cc3=O)CCCC4)cc2)n[nH]1
1.8%	CCOc1ccc(CNC(=O)C2c3ccccc3CC(=O)N2CC)cc1 (configuration not stated)
6.7%	CCc1noc(-c2ccn3c(CNC(=O)Cc4cccc(F)c4)nnc3c2)n1
6.5%	Cn1nccc1C(=O)N1CCC(Oc2cccnc2)C1 (configuration not stated)
-28.6%&-0.1%[70.6 µM]	Cc1ccc2nc(C3CCCN(CC4CCCC4)C3)[nH]c(=O)c2c1 (configuration not stated)
7.3%[70.6 µM]	COc1ccc(C(=O)N2CCOCC3(C2)CN(c2nccs2)C3)cc1OC
4.7%[70.6 µM]	c1cncc(-c2nnc([C@H]3CCN(Cc4c[nH]c5ccccc45)C3)o2)c1
4.0%	O=C(c1ccc(OC(F)(F)F)cc1)N1CC2CC(C1)[C@H]1CCCC(=O)N1C2 (some centres not stated)
17.3%	O=C1NCC2(CCN(C(=O)c3ccccc3F)CC2)Oc2ccccc21
7.2%	CCc1nc(-c2ccc(C(=O)N3CCOCC3)cc2)n(-c2cccc(C)n2)n1
-2.6%[70.6 µM]	CN1C(=O)[C@@H]2C[C@@H](CN2Cc2ccc(OC(F)(F)F)cc2)Oc2ccccc21
-2.6%	O=C1NCCN2CC3(CCN(C(=O)Nc4ccc5c(c4)OCCO5)CC3)CC12 (configuration not stated)
-20.5%	O=C(NC1CCCN(c2cc(-c3ccc(F)cc3)[nH]n2)C1)c1ccc(Br)o1 (configuration not stated)
1.2%[70.6 µM]	O=C(NC[C@H]1OC[C@@H](NC2CCC2)[C@@H]1O)c1ccc(F)cc1
0.6%[70.6 µM]	CSCC(=O)N1CCN2C(=O)c3cc(-c4ccccc4F)ccc3NC(=O)[C@H]2C1

Screens from PubChem.
